# Mtb MbtI inh = blocks the Mycobacterium tuberculosis siderophore enzyme MbtI; purified MbtI enzyme, fluorescence intensity read-out; inhibition, %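 (about 17 µg/mL by stock and volumes)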; 0.89% of 100,000 active; AID 493033;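 active = above 50% in both replicates, above 80% if mildly self-fluorescent; inactive = the rest, strongly fluorescent compounds included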;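 note: 0% = mean of negative and 100% = mean of positive controls; one replicate is shown; some compounds called inactive have numbers as strong as hits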
# Polio RdRp inh = inhibitors of poliovirus RNA polymerase binding and polymerization; P03300; poliovirus polymerase elongation, fluorescence polarization; active compounds read low; % elongation, % (compound at 16.7 µg/mL); 0.66% of 150,000 active; in the data active = % elongation below about 90%; note: some results filed as inactive read as strong as hits
# Target sequence (P03300 1749-2209 limits assumed): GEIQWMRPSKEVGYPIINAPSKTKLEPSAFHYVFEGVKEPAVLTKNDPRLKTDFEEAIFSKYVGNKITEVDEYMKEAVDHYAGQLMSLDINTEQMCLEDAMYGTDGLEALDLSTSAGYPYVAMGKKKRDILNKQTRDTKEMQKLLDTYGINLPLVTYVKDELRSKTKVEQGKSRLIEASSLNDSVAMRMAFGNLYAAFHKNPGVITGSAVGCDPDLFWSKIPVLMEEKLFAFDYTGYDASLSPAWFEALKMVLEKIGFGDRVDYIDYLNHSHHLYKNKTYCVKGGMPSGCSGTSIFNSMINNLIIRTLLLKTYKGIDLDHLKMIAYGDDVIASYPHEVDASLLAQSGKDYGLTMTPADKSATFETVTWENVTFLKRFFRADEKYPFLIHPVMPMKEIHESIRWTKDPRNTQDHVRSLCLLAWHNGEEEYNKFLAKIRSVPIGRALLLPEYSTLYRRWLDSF
# MenB inh = blocks the Mycobacterium tuberculosis MenB enzyme; P9WNP5; MenB enzyme assay, absorbance read-out; some hits fall short of the stated cut; inhibition, %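 (about 12 µg/mL by stock and volumes)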; 0.43% of 100,000 active; AID 540299;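 active = mean of two replicates above 30%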;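 note: 0% = no compound and 100% = wells with inactive enzyme; the first replicate is given; strong numbers were not always called active; inactives centre near -10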
# Target sequence (P9WNP5 whole entry, looked up): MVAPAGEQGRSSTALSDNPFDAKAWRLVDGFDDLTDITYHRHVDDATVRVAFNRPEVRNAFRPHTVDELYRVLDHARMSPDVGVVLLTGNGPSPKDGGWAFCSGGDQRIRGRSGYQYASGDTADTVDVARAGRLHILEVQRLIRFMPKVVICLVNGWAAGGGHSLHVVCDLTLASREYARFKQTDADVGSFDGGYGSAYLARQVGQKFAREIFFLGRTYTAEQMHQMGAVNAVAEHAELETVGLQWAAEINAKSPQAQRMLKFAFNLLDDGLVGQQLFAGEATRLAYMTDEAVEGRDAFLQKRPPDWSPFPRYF
# Polio RdRp inh intensity = also measured in Polio RdRp inh; calls as there; % elongation; measured here: total intensity read-out; formula for this scale not given here;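 total fluorescence in place of polarization; lower means less elongation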
# * hit, by the source's call; i = inactive; x = no result given; & = joins results of further samples.
SMILES,Mtb MbtI inh,Polio RdRp inh,Polio RdRp inh intensity,MenB inh
O=C(CSc1ncnc2ccccc12)NC(c1ccccc1)c1ccccc1,-7,104,111,x
C=CCN(CC(=O)O)S(=O)(=O)c1ccc(Cl)cc1,-6,96,96,-26
O=C(CCc1ccccc1)Nc1nccs1,-8,101,101,14
CCn1c(SCC(=O)Nc2cccc(Cl)c2C)nnc1C1CC1,-2,101,100,30
Nc1nc2ccccc2oc1=O,12,99,100,-40
Cn1c(C(=O)NC2CCCC2)cc2oc3ccccc3c21,-23,107,106,-1
Cc1cc(C(=O)CSc2nnc3ccccn23)c(C)n1C,7,107,111,-9
Cn1c(/C=N/n2cnnc2)nc2ccccc21,i,102,107,x
CO[C@H]1C[C@@H]2CC[C@@H](C)[C@@](O)(O2)C(=O)C(=O)N2CCCC[C@H]2C(=O)O[C@H](C(C)CC2CC[C@@H](O)[C@H](OC)C2)CC(=O)[C@H](C)/C=C(\C)[C@@H](O)[C@@H](OC)C(=O)[C@H](C)C[C@H](C)/C=C/C=C/C=C/1C (stereo partly drawn),-6,99&99,103&101,-17
CCN(CC)S(=O)(=O)Cc1ccccc1,37,105,105,-28
CCn1c(COC(=O)CCOc2cc(C)ccc2C)nc2cc(S(=O)(=O)N(C)C)ccc21,-7,105,108,-12
Cc1ccc(C(=O)NC2CCCCCC2)cc1NC(=O)c1ccco1,-34,99,103,-3
Cc1cccc(N2OC(C)(N(O)c3cccc(C)c3)CC2(C)C)c1 (stereo not drawn),2,101,102,3
Cc1cc(C(=O)Cn2c(C)nc3ccccc32)c(C)n1-c1c(C)n(C)n(-c2ccccc2)c1=O,-15,115,118,-16
NC(=O)c1c(Cl)ncc2c1NCC2,-6,100,104,14
NS(=O)(=O)c1ccc(NC(=O)COC(=O)c2cccc(N3C(=O)CCC3=O)c2)cc1,x,105,112,1
CCC(=O)Nc1sc2c(c1-c1nc3ccccc3s1)CCN(C(C)=O)C2,-9,100,99,-4
CCc1ccc(CNc2ccc3c(c2)ncn3CC)cc1,116,101,103,-10
CCC(C)NC(=O)c1nc(-c2ccccc2)n(-c2ccccc2)n1 (stereo not drawn),6,x,x,8
CCc1ccc(CNC(=O)C2CCN(S(=O)(=O)N3CCCCC3)CC2)cc1,-7,103,108,7
CN1CCC(N(C)C(=O)c2ccccc2F)CC1,x,106,101,-12
Cc1sc2ncnc(SCC(=O)NC(=O)c3cccn3C)c2c1C,28,110,117,-1
Cc1ccc(P(=Nc2ccccc2C(F)(F)F)(OCCN2CCOCC2)C(C)(C)C)o1 (stereo not drawn),-2,98,104,-16
Cc1cc(C(=O)CSc2nnc(-c3cccs3)o2)c(C)n1CCc1ccc(F)cc1,-25,104,112,1
CCCCCn1c(=O)c(Cc2ccccc2)c(O)c2ccccc21,-23,100,102,-11
C=CCSc1nnc(NC(=O)c2ccc3c(c2)SC2=NS(=O)(=O)CCN23)s1,104,100,107,-12
CNC(=O)n1cc(Br)c(/C(N)=N\OCc2ccccc2)n1,-2,104,105,-12
c1ccc(C(c2ccccc2)N2CCN(CCCc3c[nH]c4ccccc34)CC2)cc1,3,103,100,14
O=C(/C=C/c1cnc2ccccc2n1)N1CCN(S(=O)(=O)c2ccccc2)CC1,-7,103,104,-25
CN1CCN(C2=C(C(=O)Nc3ccc(Cl)cc3)CC/C2=C\c2ccccc2)CC1,1,102,97,-19
CC1Cc2ccccc2N1C(=O)COc1ncnc2sccc12 (stereo not drawn),4,103,107,7
O=C1/C(=C/c2ccsc2)Cc2ccccc21,1,100,95,-24
COc1ccc(Cn2c(CN3C(=O)c4ccccc4C3=O)nc3cccnc32)cc1,-5,101,102,3
O=C(C1CC2c3ccccc3C1c1ccccc12)N1CCOCC1 (stereo not drawn),-11,101,103,-16
CC1=CC2=NC(C(F)(F)F)(C(F)(F)F)N=C(C)N2C=C1,0,100,98,-34
O=C(NCCN1CCCCC1)Nc1cccc(Cl)c1,x,107,110,-9
Cc1nc(-c2ccc(-c3ccno3)s2)no1,57,99,100,18
Cc1cccc(CC(=O)N2CCC3(CC2)OCCO3)c1,-7,102,105,-6
CN(Cc1ccco1)C(=O)CSc1ccc2c(c1)OCCO2,-3,104,101,-13
CCC(C)NC(=O)Nc1cccc2ccccc12 (stereo not drawn),-36,103,102,-30

# Some of the entries so far, with values under each structure:
# Screens in order: Mtb MbtI inh	Polio RdRp inh	Polio RdRp inh intensity	MenB inh
CC1=CC2=NC(C(F)(F)F)(C(F)(F)F)N=C(C)N2C=C1
 : 0	100	98	-34
O=C(NCCN1CCCCC1)Nc1cccc(Cl)c1
 : x	107	110	-9
Cc1nc(-c2ccc(-c3ccno3)s2)no1
 : 57	99	100	18
Cc1cccc(CC(=O)N2CCC3(CC2)OCCO3)c1
 : -7	102	105	-6
CN(Cc1ccco1)C(=O)CSc1ccc2c(c1)OCCO2
 : -3	104	101	-13
CCC(C)NC(=O)Nc1cccc2ccccc12 (stereo not drawn)
 : -36	103	102	-30

# More entries:
SMILES,Mtb MbtI inh,Polio RdRp inh,Polio RdRp inh intensity,MenB inh
COc1ccc(CC(=S)N2CCOCC2)cc1,37,96,95,3
Cc1cc(NC(=O)C2CCN(S(=O)(=O)c3ccccc3)CC2)ccc1-n1cnnn1,-87,102,101,-5
O=C(Nc1ccccc1)O/N=C1/CCCc2occc21,16,102,104,-25
CCn1nc(C(=O)O)c(=O)c2cc3c(cc21)OCO3,5&-18,99&101,100&100,-11&-1
Cc1ccc(CCNC(=O)CCn2cnc3onc(-c4ccc(F)cc4)c3c2=O)cc1,7,103,102,-15
CN1/C(=C\C(=O)COC(=O)CC2CCCC2)C(C)(C)c2ccccc21,-6,135,142,-58
Cn1ccsc1=NC(=O)c1ccc2c(c1)C(=O)N(Cc1ccccc1)C2=O,5,103,108,-19
CC(=O)NCCn1c(SCc2ccccc2C)nc2ccccc2c1=O,-7,102,95,-25
CCn1c(C(=O)NCc2ccc(C)cc2)cc2oc3ccccc3c21,100,104,104,-32
CC(C)(Nc1ccccc1N)c1nc2ccccc2[nH]1,-10,103,107,x
Cc1nnc(SCC(=O)Nc2ccc3c(c2)OCCO3)n1N,-2,106,107,-13
CCN1CCCC1CNC(=O)CCCc1cn(CC)c2ccccc12 (stereo not drawn),-5,104,100,6
Cc1nc2ccccc2nc1OCC(=O)Nc1ccccc1,-6,105,101,-13
O=C(NCCC(c1ccccc1)c1ccco1)c1cccs1 (stereo not drawn),1,102,101,-49
CCOc1ccc(NC(=O)c2ccc(-c3ccccc3F)o2)cc1,3,101,101,-51
C=CCN(C)NC(=S)Nc1ccccc1,-4,103,97,-1
CC(C)COc1cccc(C(=O)O)c1,-1,100,103,11
CCCCn1c(=O)c(C(=O)Nc2nccs2)c(O)c2ccccc21,x,106,100,-11
CCC(=O)N1CCNC(=O)C1CC(=O)Nc1ccc(C)c(Cl)c1 (stereo not drawn),-4,105,108,-12
CCNCC(=O)NCc1cccs1,12,104,99,10

# Part of the list above, as tab-separated lines.
Compound	Mtb MbtI inh	Polio RdRp inh	Polio RdRp inh intensity	MenB inh
CCC(=O)N1CCNC(=O)C1CC(=O)Nc1ccc(C)c(Cl)c1 (stereo not drawn)	-4	105	108	-12
CCNCC(=O)NCc1cccs1	12	104	99	10

# Additional records follow:
SMILES,Mtb MbtI inh,Polio RdRp inh,Polio RdRp inh intensity,MenB inh
COC(=O)C1C(=O)CC(=O)CC1c1ccc(OC)cc1 (stereo not drawn),3,105,105,-36
O=C(NCCc1ccccc1)c1ccc(NC2=NC3CS(=O)(=O)CC3S2)cc1 (stereo not drawn),2,104,109,-15
Cc1ccc(NC(=O)CNCCCN2CCOCC2)cc1Br,-1,100,102,-3
Cc1ccc(NC(=O)COC(=O)c2cccs2)c(C)c1,x,105,105,3
CN(CCc1ccccc1)Cc1c(F)cccc1F,0,100,105,-6
Cn1c(=O)n(CCOc2ccc3ccccc3c2)c2ccccc21,-6,99,102,-20
CCc1sc(-c2ccc(Cl)cc2)nc1C(=O)OC,23,103,109,-19
CC1CCCC(C)N1/N=C/c1ccc(N(C)C)cc1 (stereo not drawn),-9,104,107,-8
COc1ccccc1-c1oc2ccccc2c(=O)c1OC(=O)c1cccs1,x,104,100,-23
Cc1nc2sccn2c1C(=S)NC(=O)c1ccc(S(=O)(=O)N2CCCCCC2)cc1,18,101,103,-52
CCOC(=O)N1CCC(NC(=O)CNS(=O)(=O)c2ccc(Br)s2)CC1,-5,103,104,-8
Cc1nc(/N=C(\N)Nc2cccc(Cl)c2C)[nH]c(=O)c1C,9,103,104,-26
O=C1/C(=C2/NCCN2C2CC(=O)N(c3ccccc3)C2=O)CC/C1=C\c1ccccc1 (stereo not drawn),-12,102,106,-12
CN(C)c1ccc(C(=S)N2CCCC2)cc1Br,-10,100,104,2
Cc1ccc(S(=O)(=O)/N=C(/NC(=S)Nc2ccccc2)c2ccccc2)cc1,21,102,103,-44
O=C1CCN(C(=O)CCNC(=O)c2ccc(Cl)cc2)CC1,4,96,100,-21
C=C(C)CC1(NC(C)c2ccccc2)CCCCC1 (stereo not drawn),11,104,105,-21
O=C(CCCc1ccccc1)Nc1ccccc1O,-3,100,101,-20
COc1ccc(C(=O)Cn2c(-c3cccnc3)ccc(C#N)c2=O)cc1,113,108,131,-95
CS(=O)(=O)N(CC(O)Cn1cc(/C=N/O)c2ccccc21)c1ccc(Cl)cc1 (stereo not drawn),-8,x,x,3
Cc1ccc(CCNC(=O)C2CCCN(Cc3nc(-c4ccc(Cl)cc4)oc3C)C2)cc1 (stereo not drawn),-4,103,107,-20
Oc1ccc2ccccc2c1/C=N/NC1=NCCC1,18,104,103,-20
Cc1nc(NCCNC(=O)c2ccco2)c2c(C)c(C)sc2n1,18,102,100,22
Cc1ccc(C(=O)N/N=C/c2c[nH]c3ccccc23)cn1,20,103,102,3
COc1ccc(C(=O)Nc2ccc(C)cn2)cc1,x,104,106,-11
CC(OC(=O)c1ccc2ncsc2c1)C(=O)N1CCCCC1 (stereo not drawn),-16,100,87,23
CC1=NN(c2ccccc2)C(=O)C1C1C(=O)N(c2ccccc2)N=C1C (stereo not drawn),5,103,102,-3
Oc1ccc2ccccc2c1/C=N/c1nccs1,33,93,97,-56
NC(=S)c1cc2ccccc2oc1=O,12,69,193,-26
NC1=C(c2ccc(F)cc2)C(=O)CS1,35,101,103,x

# Full records, quoted from the list. Values in the order: Mtb MbtI inh, Polio RdRp inh, Polio RdRp inh intensity, MenB inh
# Results for O=C(CCCc1ccccc1)Nc1ccccc1O : -3, 100, 101, -20
# Results for Cc1ccc(CCNC(=O)C2CCCN(Cc3nc(-c4ccc(Cl)cc4)oc3C)C2)cc1 (stereo not drawn) : -4, 103, 107, -20
# Results for Cc1nnc(SCC(=O)Nc2ccc3c(c2)OCCO3)n1N : -2, 106, 107, -13
# Results for Cc1cccc(N2OC(C)(N(O)c3cccc(C)c3)CC2(C)C)c1 (stereo not drawn) : 2, 101, 102, 3
# Results for CCC(C)NC(=O)c1nc(-c2ccccc2)n(-c2ccccc2)n1 (stereo not drawn) : 6, x, x, 8

# Other entries:
SMILES,Mtb MbtI inh,Polio RdRp inh,Polio RdRp inh intensity,MenB inh
O=C1CCCC2=C1C(c1ccccc1F)CC(=O)N2c1ccc(Br)cn1 (stereo not drawn),6,100,101,-25
CC(C)(NS(=O)(=O)c1cccs1)C(=O)O,-2,104,103,1
N#C/C(=C/c1cccn1-c1ccc(Br)cc1)C(=O)NCc1ccco1,19,99,105,-33
Cc1nc2nc(NCc3c(F)cccc3Cl)[nH]n2c(=O)c1C,-7,101,101,-7
CC(C)C1=CCC(C)/C(=C\c2ccc(Cl)cc2)C1=O (stereo not drawn),-2,105,110,-5
OCc1nc2c(ccc3ccccc32)[nH]1,19,102,98,-66
Cc1cc(C(=O)COC(=O)c2cccs2)c(C)n1CCc1ccccc1,9,102,100,-53
CCOc1ccc(C(Nc2ccccc2)P2(=S)OCCCO2)cc1 (stereo not drawn),5,98,103,-8
CCOC(=O)C1CCN(/C=C(\C#N)S(=O)(=O)c2ccccn2)CC1,2,102,102,17
CCCc1cc(-c2[nH]ncc2-c2ccc(C(=O)OCC)o2)c(O)cc1O,-93,102,104,-35
CCOC(=O)c1c(C)oc2nc(CN(c3ccc(OC)cc3)S(=O)(=O)c3cc(C)ccc3C)nc(N)c12,9,109,119,1
C=CCn1c(SCc2ccc(C#N)cc2Cl)nnc1-c1cccc(OC)c1,x,101,105,-28
CCCC1COC(Cn2cncn2)(c2ccc(Cl)cc2Cl)O1 (stereo not drawn),3,99,101,-32
COc1ccc(-n2c(SCC(=O)O)nc3c([nH]c4ccccc43)c2=O)cc1OC,-6,102,104,-2
Clc1ccc(-c2nc3cnccn3c2NC2CCCC2)cc1,-12,99,104,-24
Cc1nc(-c2ccccn2)nc(NC2CCN(c3ncc(C(F)(F)F)cc3Cl)CC2)c1Cl,-7,116,116,-11
O=C(Nc1ccc(N2CCCCC2)cc1)Nc1ccc(F)cc1F,-6,102,95,-14
O=C(COC(=O)c1ccccc1O)c1ccc(Cl)cc1,16,99,102,-25
Cc1ccc(-n2c(C)cc(/C=N/NC(=O)CC3(C)OCCO3)c2C)cc1,13,103,102,26
Cc1cc(CO)sc1C,-7,100,101,2
CC1CCN(C(=O)COC(=O)c2cc(C(F)(F)F)cc(C(F)(F)F)c2)CC1,-9,101,107,-3
Nc1nc(N)nc(SCC(=O)N2CCSC2c2ccccc2F)n1 (stereo not drawn),-10,108,109,-24
CCN(Cc1cc2ccc(C)cc2[nH]c1=O)C(=O)C1CCCCC1,91,104,107,-30
COC(=C(C#N)C#N)c1c(-c2c(Cl)cccc2Cl)noc1C,-27,102,103,-10
Cc1ccc2[nH]c3c(C#N)c(=O)c4nc(N5CCCC5)ncc4n3c(=O)c2c1,1,114,124,-9
